Source: PubChem BioAssay (ICCB-Longwood Screening Facility, Harvard Medical School)
PV pol inh: inhibitors of poliovirus RNA polymerase binding and polymerization; poliovirus polymerase elongation, fluorescence polarization; stronger effect = lower value; % elongation, % (compound at 16.7 µg/mL); hit rate 0.66% among 150,000; AID 588519; in the data active = % elongation below about 90%; note: some results filed as inactive read as strong as hits
Target sequence (P03300 1749-2209 limits assumed): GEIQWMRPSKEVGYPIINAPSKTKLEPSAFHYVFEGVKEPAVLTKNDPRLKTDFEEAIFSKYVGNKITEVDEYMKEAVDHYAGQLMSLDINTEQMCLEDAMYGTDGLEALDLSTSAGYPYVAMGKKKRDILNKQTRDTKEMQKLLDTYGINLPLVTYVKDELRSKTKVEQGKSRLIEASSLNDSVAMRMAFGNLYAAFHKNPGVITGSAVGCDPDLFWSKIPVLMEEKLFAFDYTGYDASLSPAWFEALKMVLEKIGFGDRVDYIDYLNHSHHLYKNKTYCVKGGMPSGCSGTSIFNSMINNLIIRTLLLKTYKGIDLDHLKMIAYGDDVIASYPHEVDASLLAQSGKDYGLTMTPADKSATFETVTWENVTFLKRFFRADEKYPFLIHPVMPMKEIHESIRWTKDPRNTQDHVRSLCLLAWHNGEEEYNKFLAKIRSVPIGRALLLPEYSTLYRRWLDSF
PV pol inh intensity: recorded beside PV pol inh, whose call it bears; % elongation; measured here: total intensity read-out; formula for this scale not given here;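 total fluorescence in place of polarization; lower means less elongation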
Active calls of the source: *.

Molecule	PV pol inh	PV pol inh intensity
COC(=O)c1ccc(Nc2ncnc3c2nc2n3CCCC2)cc1	97.0	87.0
COc1ccccc1NC(=O)Cn1c(=O)n(Cc2ccccc2)c(=O)c2c1c1cc(C)ccc1n2C	109.0	116.0
CCOC(=O)c1cc(-c2ccccc2)n(CCCC(=O)Nc2cc(C)ccc2OC)c1C	104.0	101.0
CCOC(=O)N1CCc2c(sc3c2c(=O)n(-c2ccc(Cl)cc2)c(=O)n3CC(=O)c2ccc(F)cc2)C1	105.0	108.0
Cc1cccc(Cn2c(=O)n(CCC(=O)NCc3ccc4c(c3)OCO4)c(=O)c3sccc32)c1	104.0	108.0
CCOc1ccccc1NC(=O)CN1C(=O)COc2ccc(S(=O)(=O)NC3CCCC3)cc21	99.0	105.0
Cc1ccc(NC(=O)CCS(=O)(=O)c2cc(Br)cc3c2N(C(=O)C2CC2)CC3)cc1	109.0	110.0
COc1ccccc1Nc1c2c(nc3ccc(NC(=O)c4ccc(N(C)C)cc4)cc13)CCCC2	110.0	110.0
COc1ccccc1N1CCN(c2ncnc3c2cnn3-c2ccc(C)cc2)CC1	113.0	116.0
Cc1ccc(C)c(S(=O)(=O)c2nnn3c2nc(NC(C)C)c2sccc23)c1	102.0	108.0
CC(C)COC(=O)/C(C#N)=C\c1ccc(-c2ccccc2Cl)o1	107.0	112.0
COc1ccc(NC(=O)Cn2c(=O)oc3ccccc32)cc1	106.0	106.0
Cc1ccc(Sc2c(C)nn(C(=O)COc3ccccc3)c2C)cc1	101.0	103.0
CCN(CC)S(=O)(=O)c1ccc2nc(NC(=O)c3cccnc3)sc2c1	108.0	111.0
Cc1ccccc1C(=O)N(Cc1ccc(N(C)C)cc1)Cc1ccco1	106.0	106.0
Cc1ccc(C)c(NC(=O)c2cnc3sc(N4CCOCC4)nn3c2=O)c1	109.0	105.0
CC1=C(c2ccc(Cl)cc2)S(=O)(=O)NC1=NCCCN1CCN(c2cc(C)ccc2C)CC1	110.0	118.0
COc1cccc2sc(N(Cc3cccnc3)C(=O)c3ccco3)nc12	108.0	109.0
Cc1ccc(C(=O)CC2(O)C(=O)N(Cc3ccccc3)c3ccccc32)c(C)c1 (stereo not given)	105.0	109.0
CCc1ccc(NC(=O)Cc2csc(COc3cccc(C)c3)n2)cc1	113.0	115.0
COc1ccc(CC(=O)NCC(c2cccs2)S(=O)(=O)c2ccc(F)c(C)c2)cc1 (stereo not given)	106.0	96.0
Cc1noc2ncnc(N3CCCC(C(=O)NC(C)C)C3)c12 (stereo not given)	104.0	106.0
Cc1c(C(c2ccc(Cl)cc2Cl)c2c(O)c3ccccc3oc2=O)c(=O)n(-c2ccccc2)n1C (stereo not given)	101.0	104.0
O=C(CSc1nc(Nc2ccc(F)c(F)c2)c2ccccc2n1)c1ccc(Cl)cc1	107.0	115.0
CCN(CC)S(=O)(=O)c1ccc2c(c1)c(=O)c(C(=O)N1CCN(c3cccc(Cl)c3)CC1)cn2C	106.0	107.0
CCOc1ccc(-c2cc(C(=O)N3CCN(c4cccc(C(F)(F)F)c4)CC3)c3ccccc3n2)cc1	109.0	106.0
COCCCn1c(SCC(=O)NCc2ccccc2)nc2c(sc3ccccc32)c1=O	105.0	108.0
CCCCOC(=O)c1ccc(Nc2nc3ccc(C(=O)c4ccccc4)cc3n3cnnc23)cc1	112.0	109.0
CCCN1C(=O)c2[nH]nc(-c3ccc(F)cc3)c2C1c1ccccn1 (stereo not given)	111.0	107.0
Cc1cc2c(cc1S(=O)(=O)Nc1cc(C(F)(F)F)cc(C(F)(F)F)c1)OCC(=O)N2	103.0	96.0

Complete entries from above. Order of values: PV pol inh, PV pol inh intensity
Shown for `Cc1ccc(C(=O)CC2(O)C(=O)N(Cc3ccccc3)c3ccccc32)c(C)c1` (stereo not given) : 105.0, 109.0
Shown for `CC1=C(c2ccc(Cl)cc2)S(=O)(=O)NC1=NCCCN1CCN(c2cc(C)ccc2C)CC1` : 110.0, 118.0
Shown for `Cc1ccccc1C(=O)N(Cc1ccc(N(C)C)cc1)Cc1ccco1` : 106.0, 106.0
Shown for `CCOc1ccccc1NC(=O)CN1C(=O)COc2ccc(S(=O)(=O)NC3CCCC3)cc21` : 99.0, 105.0
Shown for `CCOc1ccc(-c2cc(C(=O)N3CCN(c4cccc(C(F)(F)F)c4)CC3)c3ccccc3n2)cc1` : 109.0, 106.0

Later entries
Molecule	PV pol inh	PV pol inh intensity
CC(C(=O)NCc1ccccc1F)n1ccc2cc(S(=O)(=O)N3CCCC3)ccc21 (stereo not given)	113.0	113.0
CC(NC(=O)CCCn1c(=O)c2cccn2c2cccnc21)c1ccccc1 (stereo not given)	104.0	107.0
CCOc1ccc(Sc2cc(C(=O)NC(C)c3ccccc3)c3ccccc3n2)cc1 (stereo not given)	109.0	114.0
COc1ccc(-c2noc(CSc3nnc(-c4ccncc4)n3-c3ccc(C)cc3)n2)cc1	105.0	109.0
CC(C)c1ccc(NC(=O)c2cc(S(=O)(=O)NC3CCCCC3)ccc2F)cc1	111.0	114.0
CCc1ccc(NC(=O)CC2C(=O)N(c3cccc(C)c3)C(=O)N2CCC(C)C)cc1 (stereo not given)	107.0	114.0
O=S(=O)(NCCc1csc2nc(-c3ccc(Cl)cc3)nn12)c1ccc2c(c1)OCCO2	113.0	115.0
COc1ccc(OC)c(CNC(=O)CN2C(=O)CCn3nc(-c4cn(C)c5ccccc45)cc32)c1	110.0	115.0
COc1ccc(-n2ccnc(NCCc3ccc(S(N)(=O)=O)cc3)c2=O)cc1	105.0	111.0
Cc1cccc(NC(=O)c2oc3ccccc3c2NC(=O)c2cc(=O)c3cc(Cl)ccc3o2)c1	105.0	107.0
COc1ccc(-n2c(SCC(=O)Nc3cccc(C)c3C)nc3c([nH]c4ccccc43)c2=O)cc1	101.0	109.0
CCCCNC(=O)CC1Nc2cc(C)c(C)cc2NC1=O (stereo not given)	108.0	109.0
COc1ccc(C(=O)Nc2nc3c(s2)Cc2c(Br)ccc(OC)c2-3)cc1OC	104.0	106.0
CC(=O)Nc1cccc(NC(=O)C(=O)NCCc2sc(-c3ccccc3)nc2C)c1	104.0	107.0
Cn1c(=O)cc(SCC(=O)N2CCN(c3ccccc3F)CC2)c2ccccc21	108.0	110.0
CCOc1cccc(C(c2c(C)n(C)n(-c3ccccc3)c2=O)c2c(C)n(C)n(-c3ccccc3)c2=O)c1OC	105.0	111.0
COc1cc(C(=O)NCC(c2ccc3c(c2)OCO3)N2CCOCC2)cc(OC)c1OC (stereo not given)	105.0	111.0
CCCCOc1ccc(C(=O)N(Cc2ccc(C(C)C)cc2)C2CCS(=O)(=O)C2)cc1 (stereo not given)	104.0	104.0
O=S(=O)(Nc1cccc(-c2ccc(N3CCOCC3)nn2)c1)c1cc(C(F)(F)F)ccc1Cl	105.0	111.0
O=C(NCc1ccccc1)c1cc2sccc2n1Cc1ccc(F)cc1	109.0	113.0
Cc1cc(C)cc(NC(=O)CN2C(=O)COc3ccc(S(=O)(=O)Nc4ccccc4)cc32)c1	112.0	111.0
O=S(=O)(c1ccccc1)n1nc(-c2ccco2)nc1NCc1ccccc1	110.0	113.0
Cc1ccc(C(=O)n2nc(C)c(S(=O)(=O)N3CCOCC3)c2C)cc1	107.0	109.0
COc1cc(C(c2c(O)c3ccccc3oc2=O)c2c(C)n(C)n(-c3ccccc3)c2=O)ccc1OCC(=O)O (stereo not given)	107.0	103.0
CCc1ccc(NC(=O)CC2C(=O)N(c3ccc(C)cc3)C(=O)N2C2CCCC2)cc1 (stereo not given)	99.0	101.0
COc1ccc(NC(=O)CN2C(=O)C(C)(C)c3ccccc32)cc1Cl	108.0	110.0
COc1cccc(-c2nc(CS(=O)(=O)CC(=O)Nc3cc(F)ccc3F)c(C)o2)c1	106.0	105.0
COc1ccc(-c2nc(CCNC(=O)c3cc(OC)c(OC)c(OC)c3)cs2)cc1	108.0	109.0
Cc1ccc(S(=O)(=O)N2CCC(C(=O)NCc3ccccc3Cl)CC2)cc1	108.0	100.0
CCOC(=O)c1ccc(NC(=O)NCCOCCn2c(=O)oc3ccccc32)cc1	106.0	110.0

Going on with the list.
Screens in order: PV pol inh	PV pol inh intensity
> Cc1ccc(Cl)cc1N(C)C(=O)c1cnc(N2CCOCC2)c2ccccc12
  108.0	115.0
> CC(=O)N1CCCc2cc(S(=O)(=O)N(C)CC(=O)Nc3cccc(Cl)c3C)ccc21
  105.0	109.0
> Cc1cccc(NC(=O)CSc2ncc(-c3ccccc3)[nH]2)c1C
  101.0	106.0
> CSc1ncc(C(=O)Nc2ccccc2C(=O)c2ccccc2)c(C(F)(F)F)n1
  109.0	112.0
> Cc1ccc(-c2nnc3ccccc3c2C(=O)Nc2ccc(F)cc2)cc1
  112.0	108.0
> Cc1cc(-c2ccc(S(=O)(=O)Nc3ccc(Br)c(C)c3)s2)on1
  107.0	100.0
> CCn1cc(C(=O)NCCN(CC(C)C)CC(C)C)c(=O)c2cc(S(=O)(=O)N(C)C3CCCCC3)ccc21
  110.0	110.0
> CCc1ccccc1NC(=O)c1cn(C)c(=O)c2ccccc12
  101.0	102.0
> O=C(Cn1ncc2c3ccccc3n(Cc3ccc(Cl)cc3)c2c1=O)NCCC1=CCCCC1
  133.0	146.0
> COc1ccccc1CNc1ccc(-c2nc(-c3ccco3)no2)cc1[N+](=O)[O-]
  109.0	113.0
> Cc1ccc(Cl)cc1NC(=O)N1CCC2(CC1)Oc1ccccc1C(=O)N2Cc1ccccc1F
  108.0	105.0
> O=C(COc1ccccc1)Nc1ccc(C(=O)OCc2cc(=O)n3nc(C4CC4)sc3n2)cc1
  113.0	116.0
> CCOC(=O)c1c(NC(=O)c2cc(-c3cccc(OC)c3)on2)sc2c1CCCC2
  77.0*	81.0*
> Fc1ccc(Nc2c(-c3ccccn3)nc3ccc(Cl)cn23)cc1
  101.0	104.0
> Cc1nc(SCC(=O)Nc2ccccc2C)cc(-c2ccccc2)n1
  107.0	109.0
> CS(=O)(=O)N(CC(=O)NCCSCc1ccccc1)c1cc(C(F)(F)F)ccc1Cl
  109.0	102.0
> Cc1c(C(=O)OCCOc2ccccc2)[nH]c2c1C(=O)CC(c1ccccc1)C2 (stereo not given)
  104.0	108.0
> CCCSc1nc(-c2ccc(OC)cc2)cc(-c2ccccc2OC)c1C#N
  88.0*	92.0*
> CCCC(=O)N(c1ccc2oc3c(c2c1)CCCC3)S(=O)(=O)c1ccc(CC)cc1
  104.0	107.0
> CCOc1ccc(NCc2nc3ccccc3n2CCOc2ccc(C)cc2)cc1
  101.0	102.0

Additional compounds follow:
Screens in order: PV pol inh	PV pol inh intensity
> O=C(Cn1c(SCc2ccccc2F)nc2ccncc21)Nc1ccccc1C(F)(F)F
  105.0	108.0
> CN1CCc2nc3sc(C(=O)Nc4ccccc4C(F)(F)F)c(N)c3cc2C1
  31.0*	49.0*
> CCOc1ccc(CC(=O)Nc2c(C(=O)c3ccc(C)cc3)oc3ccccc23)cc1OCC
  110.0	109.0
> Cc1cc(CN2CCN(c3cccc(C)c3C)CC2)cs1
  109.0	105.0
> COc1ccc(OC)c(NC2=C(c3ccccc3)C(=O)c3ccccc32)c1
  102.0	103.0
> CCOC(=O)CN(Cc1ccccc1)C(C(=O)NC1CCCCC1)c1ccc(OC)cc1 (stereo not given)
  104.0	104.0
> Cc1ccc(Cl)cc1N1CCN(c2ncnc3c2nc2n3CCCC2)CC1
  112.0	114.0
> COc1ccc(C2C(C(=O)Nc3ccc(C)cc3C)=C(C)Nc3nc(SC)nn32)cc1OC (stereo not given)
  108.0	111.0
> CCOc1ccc(Sc2cc(C(=O)NCCc3ccccc3)c3ccccc3n2)cc1
  105.0	113.0
> COc1cccc(NC(=O)NCc2ccc3c(c2)CCN3C(=O)c2ccccc2)c1
  104.0	111.0
> CCCCNC(=O)CN1CCN(c2ccc(NC(=O)c3ccc(OC)cc3)cc2C(=O)O)CC1
  106.0	107.0
> O=C(CSc1oc(-c2ccc(F)cc2)nc1S(=O)(=O)c1ccccc1)NC1CCCCC1
  106.0	108.0
> COc1ccc(/C=C(\C#N)c2nc(-c3cc4c(ccc5ccccc54)oc3=O)cs2)cc1O
  105.0	108.0
> CCOc1ccccc1NC(=O)c1cc2ccc3cccnc3c2[nH]1
  99.0	105.0
> Cc1ccc(CNC(=O)CSCc2nc(-c3ccc(Cl)cc3)oc2C)cc1
  103.0	104.0
> COc1ccc(NC(=O)Cn2c(=O)cc(C)c3c(C)nn(C)c32)cc1
  100.0	102.0
> Cc1cc(C)cc(NC(=O)CN(C)S(=O)(=O)c2ccc3[nH]c4c(c3c2)CCCC4)c1
  110.0	114.0
> Cc1ccc2scc(N3CCN(C)CC3)c(=O)c2c1
  104.0	97.0
> CCc1ccccc1NC(=O)c1ccc2nc(CCc3ccccc3)oc2c1
  108.0	110.0
> COc1ccc(S(=O)(=O)Nc2cccc(-c3ccc(N4CCCC4)nn3)c2)cc1OC
  108.0	108.0

(continued)
Screens in order: PV pol inh	PV pol inh intensity
> COc1ccc(N2CCN(C(=O)CCc3c(C)nc4cc(-c5cccc(F)c5)nn4c3C)CC2)cc1
  103.0	104.0
> CCc1nnc(NC(=O)c2nc(SC)ncc2Cl)s1
  122.0	115.0
> O=C(NCC(c1cccnc1)N1CCc2ccccc21)c1cccc(C(F)(F)F)c1 (stereo not given)
  109.0	115.0
> O=C(Nc1ccc(Cl)c(Cl)c1)c1cc(S(=O)(=O)N2CCN(c3cccc(Cl)c3)CC2)ccc1F
  110.0	107.0
> O=C(Cn1cc2c(n1)CCCC2)Nc1cc(C(F)(F)F)ccc1Cl
  100.0	103.0
> CCOc1ccccc1NC(=O)c1nn(C)c2c1CSc1ccccc1-2
  105.0	107.0
> Cc1ccc(-c2noc(-c3nnn(-c4ccc(Br)cc4F)c3C)n2)cc1
  113.0	114.0
> Cc1ccc(Nc2c(-c3cccnc3)nc3ccc(C)cn23)cc1
  110.0	108.0
> CCCCOc1ccc(Cn2c(=O)oc3ccc(C)cc32)cc1
  104.0	105.0
> COc1ccc(NC(=O)Cn2cc(C(=O)c3ccccc3)c(=O)c3cc(OC)ccc32)c(OC)c1
  102.0	109.0
> CCOc1ccc(S(=O)(=O)NCCc2sc3nc(-c4ccc(C)cc4)nn3c2C)cc1
  105.0	99.0

This is a subset; rates above refer to the full screens.
